Assay outcomes: PubChem BioAssay, Broad Institute
rRNA inh HTS: inhibitors of bacterial rRNA selective over humanized ribosomes | AID 720706 | GFP signal change (wild-type ribosome), % (no concentration beside the values) | E. coli WT GFP vs humanized-ribosome RFP mutants, fluorescence, 24 h; hits give low values; DMSO median 0, no signal -100 | 1.6% of 350,000 active;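 active = significant combined selectivity score with lowered wild-type GFP, culture density cut under 30%, mutant RFP and density less affected; inactive = any of these conditions unmet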; note: one replicate is shown; some compounds called inactive have numbers as strong as hits
AF4-AF9 inh: MLL-AF4/AF9 protein interaction inhibition. AlphaScreen, biotin-AF4 peptide binding to FLAG-AF9. inhibition, % at 10 µM. 0.47% of 350,000 active. P42568;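 active = every replicate reaching a set inhibition limit, whatever the replicate mean, cut at about 25% in these data; inconclusive = mean inhibition reaches that limit but some replicates miss it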;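 note: 0% = plate neutral control median and 100% = total signal loss; the record names both 10 and 1 µM as test concentration; the first replicate is given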
Target sequence (P42568 whole entry, looked up): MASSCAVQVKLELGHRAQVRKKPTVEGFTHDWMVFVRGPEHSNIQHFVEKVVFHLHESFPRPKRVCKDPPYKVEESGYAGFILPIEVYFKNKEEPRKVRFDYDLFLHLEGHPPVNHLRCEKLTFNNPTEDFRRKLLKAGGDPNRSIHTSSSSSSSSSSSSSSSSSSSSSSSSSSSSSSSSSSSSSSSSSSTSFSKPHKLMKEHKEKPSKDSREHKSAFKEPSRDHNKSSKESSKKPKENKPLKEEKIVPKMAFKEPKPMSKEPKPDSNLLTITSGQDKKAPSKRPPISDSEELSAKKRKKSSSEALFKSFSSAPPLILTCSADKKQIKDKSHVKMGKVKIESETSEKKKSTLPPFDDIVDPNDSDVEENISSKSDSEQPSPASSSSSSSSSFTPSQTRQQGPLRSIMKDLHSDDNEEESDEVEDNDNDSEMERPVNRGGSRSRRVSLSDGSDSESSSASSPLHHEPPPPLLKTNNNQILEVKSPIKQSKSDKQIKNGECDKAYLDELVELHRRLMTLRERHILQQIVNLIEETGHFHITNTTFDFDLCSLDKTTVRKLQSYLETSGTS
ALR H2O2 inh: blocks human ALR sulfhydryl oxidase activity. P55789. purified ALR, DTT oxidation, H2O2 HRP-luminol luminescence. inhibition, % (concentration not given with the values). 3.8% of 290,000 active. AID 485317;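 active = mean and each replicate at 75% or more; inconclusive = only one of the two met; inactive = neither met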;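 note: stock transfer was 7.5 nL into about 7.5 µL; 0% = neutral wells and 100% = wells with inactivated enzyme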
Target sequence (P55789 whole entry, looked up): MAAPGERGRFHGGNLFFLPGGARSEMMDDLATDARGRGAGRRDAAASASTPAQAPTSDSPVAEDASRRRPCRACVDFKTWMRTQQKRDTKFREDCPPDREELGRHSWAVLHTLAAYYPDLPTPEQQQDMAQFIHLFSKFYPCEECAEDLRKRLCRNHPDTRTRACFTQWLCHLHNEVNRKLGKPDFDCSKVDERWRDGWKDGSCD
RanGTP-Imp inh: disruptors of Ran-importin-beta complex formation – biochemical, FRET, CFP-Ran, YFP-importin-beta, homogeneous, primary screen; cell-free CFP-Ran/YFP-importin-beta FRET ratio; inhibition, % (test concentration not listed); 1.1% of 300,000 active;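 active = most replicates above 15%; inconclusive = exactly half above 15%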;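 note: 0% = DMSO wells and 100% = Ran loaded with GDP instead of GTP; wells of about 40 µL received 100 nL stock; the first replicate is given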
Calb FLC: C. albicans growth modulation with fluconazole; C. albicans CaCi-2 (fluconazole-resistant clinical isolate) + fluconazole, Alamar Blue growth, 48 h; 0.57% of 300,000 active; AID 1979; growth inhibition, % (concentration not given with the values);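 active = most replicates above 75%; inconclusive = exactly half above 75%; inactive = most below 75%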;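 note: all wells also contain fluconazole at 8 µg/ml as a sub-toxic cotreatment; 0% = median of DMSO wells and 100% = median of geldanamycin control wells; wells of about 8 µL received 7.5 nL stock; the first replicate is given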
Beta apoptosis: beta cell apoptosis inhibition; 0.8% of 300,000 active; INS-1E cytokine-induced death, ATP luminescence, 48 h; percent of positive-control rescue, neutral wells zero; protection from apoptosis, % (test concentration not listed); AID 435005;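 active = all replicates at 75% or more, or half of them and the mean; inconclusive = half reach 75% but not the mean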;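 note: 0% = cytokine-treated negative control wells and 100% = positive control rescue; higher means more ATP so stronger rescue from cytokine killing; wells of about 40 µL received 100 nL stock; the first replicate is given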
T cruzi repl: T. cruzi replication inhibition; T. cruzi beta-gal in NIH3T3, luminescence, 90 h; 1.4% of 300,000 active; inhibition, % (concentration not given with the values);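 active = mean inhibition across valid replicates above about 55%, limit read from the data; inconclusive = mean below that limit but half or more replicates reach it; inactive = mean below it, under half of replicates reach it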;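 note: signal also drops with host cell toxicity which is not excluded here; 0% = plate median of DMSO wells and 100% = zero luminescence signal; higher percent means less beta-gal luminescence so fewer parasites; stock transfer was 50 nL into about 50 µL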
FGF22 binding: FGF22 (human) thermal shift binding. calls only at 9.99 µM. Q9HCT0. recombinant FGF22 thermal shift, SYPRO orange fluorescence; percent of sucrose octasulfate shift, DMSO zero. AID 651658. 1.5% of 340,000 active;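 active = melting point raised past a set limit in the mean and every replicate; inconclusive = no clear call; three in four hits are not shown here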
Target sequence (Q9HCT0 whole entry, looked up): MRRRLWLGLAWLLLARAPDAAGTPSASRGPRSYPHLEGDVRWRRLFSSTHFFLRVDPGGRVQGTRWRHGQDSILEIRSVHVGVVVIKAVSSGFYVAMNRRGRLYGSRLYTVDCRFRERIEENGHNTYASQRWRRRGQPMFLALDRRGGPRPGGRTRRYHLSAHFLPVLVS
rRNA inh HTS OD600: second read-out of rRNA inh HTS, no call of its own (marks repeat the call); OD600 change, %; measured here: OD600 growth;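 optical density of the mix in the first replicate; 0 = DMSO median and -100 = no signal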
rRNA inh HTS RFP: recorded beside rRNA inh HTS, whose call it bears; RFP signal change, %; measured here: RFP humanized mutant strains;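 first replicate; 0 = DMSO median and -100 = no signal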
* = called active by the depositor; i = inactive; u = inconclusive; x = no result given; + = active, no number. Some of the compounds tested. The share of hits here may be higher or lower than overall.

Results follow in this order: FGF22 binding | Calb FLC | rRNA inh HTS | rRNA inh HTS RFP | T cruzi repl | RanGTP-Imp inh | AF4-AF9 inh | Beta apoptosis | ALR H2O2 inh | rRNA inh HTS OD600
> COc1ccc(OCc2cc(/C=N\NC(=O)c3ccccc3)ccc2OC)cc1
 : i | 3.0 | -15.2 | 0.8 | 4.0 | -4.8 | -1.5 | 15.3 | -5.9 | -14.2
> CC(C)C(NC(=O)c1ccccc1Cl)C(=O)OCc1nc2scc(-c3ccccc3Cl)c2c(=O)[nH]1 (centres undefined)
 : i | 9.2 | x | x | 7.5 | u | -7.3 | x | 13.8 | x
> CC(C)C(=O)Nc1ncc(Cc2cccc(Cl)c2)s1
 : i | 1.5 | -27.6 | 6.4 | 6.9 | 0.9 | 4.0 | -14.3 | x | 24.7
> CCOc1ccc(-n2nnc3c(=O)n(CC(=O)c4ccccc4)cnc32)cc1
 : i | -6.4 | 1.6 | 1.9 | 9.9 | -3.0 | -12.5 | -10.6 | -4.0 | 15.3
> COc1ccc(C2SCC(=O)N2c2nc3ccccc3s2)cc1 (centres undefined)
 : i | 10.0 | -5.0 | -8.3 | 2.9 | 4.2 | -5.9 | -2.1 | -0.4 | -17.2
> COc1ccccc1C(=O)N/C(=C/c1ccc(Br)cc1)C(=O)NCCCn1ccnc1
 : i | 5.7 | -1.8 | 1.1 | -12.6 | -1.3 | 2.5 | -8.6 | 1.8 | -7.0
> CC(C)CC(c1nnnn1C(C)(C)C)N1CCN(Cc2ccccc2)CC1 (centres undefined)
 : i | -0.9 | -6.7 | 1.6 | -5.0 | 1.6 | 2.5 | 1.6 | -7.8 | -14.3
> O=C1Cc2ccccc2Sc2ccc(O)cc21
 : i | 3.3 | -20.9 | -21.9 | -3.6 | -6.0 | -0.6 | -10.6 | 60.1 | -29.0
> O=C(CSCc1ccc(Cl)cc1)Nc1cccc(C(=O)Nc2ccccc2C(=O)O)c1
 : x | -5.1 | x | x | -10.7 | 2.8 | x | 2.8 | 97.6* | x
> O=C(NCC1CCCO1)c1cccc(NC(=O)c2ccccc2)c1 (centres undefined)
 : i | 12.4 | -1.0 | -1.2 | -3.9 | 1.9 | -2.2 | -0.4 | -1.5 | 11.5
> C=C(C(=O)c1ccccc1)C(C)CC(=O)c1ccccc1 (centres undefined)
 : x | 1.8 | x | x | -75.6 | -0.3 | x | -28.0 | 11.5 | x
> CCN1CCN(c2ccccc2NC(=O)c2ccc(-n3cccn3)cc2)CC1
 : i | x | 2.4 | -3.4 | x | x | 3.8 | -1.3 | x | 2.7
> O=C(c1cc(COc2ccc(F)cc2Cl)on1)N1CCN(c2cnccn2)CC1
 : i | 1.8 | -10.2 | -3.3 | -8.8 | 0.9 | -9.1 | x | 14.0 | -30.3
> COc1ccc(C(=O)NCC(=O)N2CCNC(=O)C2)cc1OC
 : i | 17.8 | 9.3 | -2.5 | -32.1 | 2.0 | 2.3 | -1.4 | x | 10.4
> Cc1c(C(=O)OCC(=O)NC(C)c2ccccc2)oc2ccccc12 (centres undefined)
 : i | -14.3 | 11.1 | 0.1 | -9.8 | 1.7 | -1.1 | -2.6 | -5.6 | 21.0
> Cc1ccc(C(=O)Nc2ccccc2N2CCN(C(=O)C(C)C)CC2)cc1
 : x | -0.3 | x | x | 8.5 | -2.5 | x | 3.2 | -3.2 | x
> Cc1nc2ccccc2c(=O)n1/N=C/c1ccncc1
 : x | u | x | x | -14.2 | 2.9 | x | -3.5 | -7.5 | x
> COC(=O)c1cccnc1NC(=S)NC1CCCCC1
 : i | 43.3 | 4.1 | -1.9 | -4.7 | 4.8 | -1.7 | 2.8 | -3.1 | 2.2
> Cc1cc(-c2csc(N)n2)c(C)n1-c1ccc(Cl)c(Cl)c1
 : i | -4.4 | 0.7 | 5.5 | -3.2 | -0.3 | 5.5 | 5.6 | x | 2.4
> CCNC(=O)/C(C#N)=C/c1c(N(Cc2ccccc2)Cc2ccccc2)nc2ccccn2c1=O
 : i | -23.6 | -17.9* | 0.4* | 17.0 | 3.7 | 11.9 | 9.9 | -1.9 | -0.4*
> CC1CCCC(NC(=O)COC(=O)/C=C/c2ccc(S(=O)(=O)N3CCOCC3)cc2)C1C (centres undefined)
 : i | -2.1 | 0.8 | -0.8 | -10.3 | -16.1 | -10.5 | -3.8 | 0.1 | -0.6
> FC(F)(F)c1ccc(NC(=S)NCc2ccccc2)cc1
 : i | -18.0 | -51.5 | -15.1 | 10.5 | -1.6 | -0.8 | 2.4 | 2.2 | -81.6
> FC(F)(F)c1cccc(N2Cc3ccccc3C2)c1
 : x | 18.4 | x | x | -4.7 | -1.2 | x | 7.1 | -11.6 | x
> COc1ccc2nc(SCc3ccccc3C)nc(C)c2c1
 : i | -5.3 | 33.9 | 19.7 | -2.2 | 3.1 | -16.3 | -0.1 | -5.1 | 12.3
> CN(C1(C)CCS(=O)(=O)C1)S(=O)(=O)c1ccc2ccccc2c1 (centres undefined)
 : i | 1.7 | 3.5 | -0.7 | 2.9 | -0.5 | -2.6 | -5.5 | -8.4 | -3.7
> CCc1noc(C)c1C(=O)Nc1ccc(S(=O)(=O)N2CCCCC2)cc1
 : i | x | 2.2 | -0.4 | 1.9 | -0.2 | -15.0 | 8.6 | 4.4 | -3.1
> Cc1ccc(CC(=O)N2CCN(c3cccc(C(F)(F)F)c3)CC2)cc1
 : x | 7.9 | x | x | 11.1 | 0.6 | x | -5.1 | -31.9 | x
> Cc1cc(NC(=O)COC(=O)C2CCN(S(=O)(=O)c3cccc(Cl)c3Cl)CC2)no1
 : x | 0.5 | x | x | -2.9 | -2.7 | x | -4.3 | -3.0 | x
> Cc1ccc(NC(=O)C2(NC(=O)c3ccccn3)CCCCC2)cc1Br
 : x | 1.5 | x | x | 16.7 | -1.0 | x | 0.5 | u | x
> COc1ccc(N=C2NC(=O)/C(=C/c3ccco3)S2)cc1
 : i | -1.0 | -12.4 | 3.4 | 7.5 | 0.1 | 1.9 | -1.6 | 1.5 | 15.3
> CCOc1ccc(NCC(=O)Nc2ccc(C)cc2C)cc1
 : i | -14.2 | -6.3 | -6.1 | 31.0 | 3.1 | 3.6 | 9.0 | -4.5 | -8.5
> COc1ccc2oc(C(F)(F)C(F)F)cc(=O)c2c1
 : x | -1.2 | x | x | -12.7 | 2.1 | x | -4.6 | 2.0 | x
> NC(=O)c1ccc(N2CCCCC2)c(N2C(=O)CCC2=O)c1
 : x | -1.5 | x | x | -5.7 | 0.8 | x | -3.3 | 1.2 | x
> CC(C)(C)OC(=O)NCCCCCc1cn([C@@H](CO)C(=O)NCCCCCCCCCCC(=O)N2CCN(C(=O)OC(C)(C)C)CC2)nn1
 : + | x | -27.9 | 14.0 | x | x | 3.3 | 108.7* | -53.6 | -40.7
> CC1CC1C(=O)N(CCC1=CCCCC1)c1c(N)n(Cc2ccccc2)c(=O)[nH]c1=O (centres undefined)
 : i | -12.8 | 2.3 | -1.5 | 1.4 | 4.5 | -5.3 | -0.4 | -0.3 | 7.5
> CCOC(=O)c1cnc2ccccc2c1NCCc1ccc(OC)c(OC)c1
 : x | 14.1 | x | x | 14.8 | 3.3 | x | 14.9 | -2.3 | x
> CCOc1cccc(CN(C)CC2CCCN(CCc3ccc(Cl)cc3)C2)c1O (centres undefined)
 : i | -16.5 | -0.9 | 3.1 | 32.5 | 7.2 | 14.7 | x | 1.6 | 1.1
> COc1cc(-c2nc3cnccn3c2Nc2ccccc2)ccc1O
 : i | -7.9 | -9.5 | 3.6 | 4.9 | 3.2 | -0.5 | -7.9 | u | -8.7
> COc1cccc(CNC(=O)CC(NC(=O)c2ccccc2)c2ccccc2)c1 (centres undefined)
 : i | 10.6 | 2.8 | -2.5 | -5.7 | 2.5 | -7.9 | 2.0 | 38.2 | 22.4
> COC(=O)c1ccc(NC(=O)c2ccccc2N(C)S(=O)(=O)c2ccccc2)cc1
 : x | 3.9 | x | x | 13.8 | 4.6 | x | -4.9 | x | x
> O=C(NCC1CCCO1)C(c1cccnc1)N(C(=O)Cc1cccs1)c1cccnc1 (centres undefined)
 : x | 1.7 | x | x | 11.7 | -0.6 | x | 3.3 | 3.7 | x
> O=C(Nc1ccc(N2C(=O)CCC2=O)cc1Cl)c1cccs1
 : i | 29.8 | -8.2 | -7.9 | -2.9 | -2.1 | 10.8 | -2.3 | x | -13.6
> CC1=C(C)/C(=N\OC(=O)/C=C/c2ccccc2)C=CC1=O
 : x | -3.0 | x | x | -21.3 | -2.6 | x | -45.0 | 86.7* | x
> COc1cccc(CNC(=O)COC(=O)CN(C)S(=O)(=O)c2ccc(NC(C)=O)cc2)c1
 : i | -1.5 | 1.6 | -1.8 | 13.7 | 2.0 | -1.2 | -6.4 | -0.3 | 6.6
> Cc1sc(NC(=O)CSc2nnc(COc3ccccc3)n2C)c(C#N)c1C
 : x | 2.6 | x | x | -5.4 | -3.1 | x | 10.8 | -0.8 | x
> COCCN(C(=S)Nc1ccc(OC)cc1)C(C)c1cccs1 (centres undefined)
 : i | -6.3 | -1.1 | -0.4 | -20.5 | -2.5 | 1.2 | -2.7 | -15.9 | -7.1
> COc1ccccc1NC(=O)COC(=O)c1c(C)nn(-c2ccccc2)c1C
 : i | x | -46.5 | -15.9 | x | x | 0.5 | 0.8 | 2.9 | -73.8
> O=C(c1ccc(COc2ccc(Br)cc2)o1)N1N=C(C(F)F)CC1(O)C(F)F (centres undefined)
 : i | -9.9 | x | x | 3.1 | 0.2 | 2.4 | 2.5 | -15.0 | x
> COc1cccc(N=NC2C(=O)N(C(N)=S)N=C2C)c1 (centres undefined)
 : i | 1.5 | -3.2 | -0.4 | x | 5.2 | 4.0 | 6.6 | -59.0 | 5.6
> CCc1sc(C(=O)NCCCn2ccnc2)cc1Br
 : i | 15.5 | 7.8 | 3.5 | 26.2 | 6.1 | 1.9 | x | -9.5 | 4.6
> COc1ccc(N(CC(=O)NC2CCCC2)S(=O)(=O)c2c(C)[nH]c(=O)[nH]c2=O)cc1
 : i | 0.2 | 0.4 | -1.7 | -20.0 | -2.1 | -6.2 | -1.3 | 3.4 | 12.0
> CCN(CC)C(=O)Cn1nnc(-c2ccc(S(C)(=O)=O)cc2)n1
 : i | -8.3 | -10.0 | -0.5 | -1.8 | u | -0.6 | -2.5 | x | -7.9
> O=C(CC1C(=O)NCCN1C(=O)Nc1ccccc1)Nc1cc(Cl)cc(Cl)c1 (centres undefined)
 : i | -3.2 | -55.7 | -11.2 | 8.8 | -2.3 | 3.4 | -11.1 | -6.5 | -74.2
> COCCSc1ccccc1C(=O)NCc1ccc2c(c1)OCO2
 : x | -15.6 | x | x | -38.2 | 5.2 | x | -1.5 | -3.8 | x
> CC(=O)Nc1ccc(N=Nc2ccccc2)cc1
 : x | -1.2 | x | x | -9.2 | 8.2 | x | -6.2 | 1.1 | x
